# Screening data from PubChem BioAssay.
# Marburg entry inh: qHTS for inhibitors of binding or entry into cells for Marburg Virus; Marburg virus pseudotyped entry inhibition, cell reporter; control for the full effect not named in the record; about a third of the inactives were read at about 46 µM; AID 540276, 2011; Potency, µM (titrated, usually from 37.8 µM), for inactives: top-dose activity change, negative = inhibition, usual class: inhibitors; actives 1.8% (n = 300,000); active = well fitted inhibition curve with a large enough effect; inconclusive = small, poorly fitted or top-dose-only effect, or effect the other way; inactive = flat fitted curve, though single readings scatter; tested in HEK293 cells; about a fifth of its hits are not listed in these tables; note: % is set by controls: 0 for no effect and ±100 for the full control effect; luciferase read-out
# Cruzain inh Det: qHTS Assay for Promiscuous and Specific Inhibitors of Cruzain (with detergent) | purified cruzain, Z-FR-AMC fluorescence, 0.01% Triton | Potency, µM, inactives show max response, negative = inhibition, actives largely listed as inhibitors | actives 0.43% (n = 200,000) | AID 1478, 2009;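 note: plate controls were neutral wells for no effect and buffer without enzyme for full effect; nearly all actives have a fitted effect of over 40% in size; top concentration of the series not given in the record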
# Target sequence (P25779 123-467 limits assumed): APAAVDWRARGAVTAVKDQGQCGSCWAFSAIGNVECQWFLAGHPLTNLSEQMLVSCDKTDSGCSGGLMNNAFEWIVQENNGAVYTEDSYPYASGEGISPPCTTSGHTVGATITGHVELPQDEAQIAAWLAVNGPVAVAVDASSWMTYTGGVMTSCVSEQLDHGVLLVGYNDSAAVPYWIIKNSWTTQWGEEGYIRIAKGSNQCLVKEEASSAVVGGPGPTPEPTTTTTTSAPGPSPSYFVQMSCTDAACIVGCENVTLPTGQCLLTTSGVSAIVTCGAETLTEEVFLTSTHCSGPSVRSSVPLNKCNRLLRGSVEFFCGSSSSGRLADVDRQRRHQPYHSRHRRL
#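 Cruzain (1.5 nM) preincubated 15 min at RT with compound in 100 mM sodium acetate pH 5.5, 5 mM DTT, 0.01% Triton X-100. Reaction started with 2 uM Z-FR-AMC; AMC fluorescence (ex 360/em 450 nm) change over 60 s gave rate.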
# Lassa entry inh: qHTS for Inhibitors of binding or entry into cells for Lassa Virus; AID 540256, 2011; Lassa virus pseudotype entry inhibition, cell reporter; control for the full effect not named in the record; actives 1.2% (n = 300,000); Potency, µM (highest dose often 37.9 µM), without a hit: at the top dose activity change, negative = inhibition, actives largely listed as inhibitors; active means well fitted inhibition curve with a large enough effect; inconclusive means small, poorly fitted or top-dose-only effect, or effect the other way; inactive means flat fitted curve, though single readings scatter; tested in HEK293 cells; note: % is set by controls: 0 for no effect and ±100 for the full control effect; nearly all actives have a fitted effect of over 50% in size; luciferase read-out
# RE007 growth inh: qHTS Assay for Inhibitors of the HIV-1 protein Vpr | S. pombe RE007 Vpr strain, BacTiter-Glo ATP luminescence, 24 h; control for the full effect not named in the record | Potency, µM (doses to about 92.2 µM), for inactives: at the top dose activity change, negative = less growth | actives 0.21% (n = 360,000) | AID 651644, 2012; active = well fitted falling curve with a large enough effect; inconclusive = small, poorly fitted or top-dose-only effect; inactive = no such curve, though single readings can be large or run the other way;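 note: % is set by controls: 0 for no effect and ±100 for the full control effect; nearly all actives have a fitted effect of over 50% in size; the assay follows cell death caused by Vpr and the record does not say whether a fall means rescue or toxicity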
#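 Fission yeast RE007 carrying one integrated HIV-1 vpr copy, seeded at OD 0.01 in PMG+AL medium with 23 nL pinned compound. Grown 24 h at 30 degrees; viability read by BacTiter-Glo luminescence after 5 min.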
# NS1 function inh: qHTS Assay for Inhibitors of Influenza NS1 Protein Function. Potency, µM (titrated, usually from 46.1 µM), without a hit: top-dose activity, positive = more growth. actives 0.4% (n = 270,000). S. cerevisiae slowed by influenza A NS1, growth recovery by OD600; active means well fitted rising curve with a large enough effect; inconclusive means small, poorly fitted or top-dose-only effect; inactive means no such curve, though single readings can be large or run the other way; note: nearly all actives have a fitted effect of over 50% in size
#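 In this qHTS, NS1 from influenza A is expressed in budding yeast, where it slows growth. Cells are switched from glucose to 2% galactose medium (pH 6.0, -URA), treated with compound, and growth recovery is read at OD600.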
# 2A StopGo: High Throughput Screening for Foot and Mouth Disease Virus Antivirals; human cells with a luciferase reporter of 2A StopGo recoding; control for the full effect not named in the record; Potency, µM (highest dose often 57.9 µM), inactives show top-dose signal change, negative = less light; actives 1.2% (n = 410,000); AID 1159524, 2015; active = well fitted falling curve with a large enough effect; inconclusive = small, poorly fitted or top-dose-only effect; inactive = no such curve, though single readings can be large or run the other way; tested in HEK293T cells; note: % is set by controls: 0 for no effect and ±100 for the full control effect; nearly all actives have a fitted effect of over 45% in size; luciferase light after 4 h
# SARS PLpro yeast: qHTS of Yeast-based Assay for SARS-CoV PLP | S. cerevisiae expressing SARS-CoV PLpro, growth rescue; control for the full effect not named in the record | Potency, µM (series often up to 32.9 µM), for the others: top-dose activity, positive = growth rescue | actives 0.19% (n = 330,000) | AID 485353, 2010; active means well fitted rising curve with a large enough effect; inconclusive means small, poorly fitted or top-dose-only effect; inactive means no such curve, though single readings can be large or run the other way; note: 0% is about no effect; nearly all actives have a fitted effect of over 55% in size; growth read by luminescence after 48 h
# Cruzain inh noDet: qHTS Assay for Promiscuous and Specific Inhibitors of Cruzain (without detergent). purified cruzain, Z-FR-AMC fluorescence, no detergent. Cruzipain (Trypanosoma cruzi), P25779. AID 1476, 2009. actives 2.3% (n = 200,000). Potency, µM, without a hit: max response, negative = inhibition, hits mostly inhibitors;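 note: plate controls were enzyme without inhibitor for no effect and buffer without enzyme for full effect; nearly all actives have a fitted effect of over 40% in size; top concentration of the series not given in the record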
#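 Detergent-free condition (0.00005% Triton X-100) in acetate buffer pH 5.5 with DTT. 1.5 nM enzyme and compound were pre-mixed 15 min, then 2 uM Z-FR-AMC substrate added; reaction progress from fluorescence change between first and third reads (60 s).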
# * hit, by the source's call; ? = inconclusive; / = not tested or not shown; & = joins results of further samples; [ ] = remark or other dose. Unless noted, calls come from the whole dose curve; as a rule, active = well fitted curve in the direction sought with a large enough effect; inconclusive = small, poorly fitted or top-dose-only effect, or another doubt; inactive = no such curve, though single readings can be large; an effect the other way counts as inactive or inconclusive. Potency is the fitted concentration of half-maximal effect.
SMILES,Marburg entry inh,Cruzain inh Det,Lassa entry inh,RE007 growth inh,NS1 function inh,2A StopGo,SARS PLpro yeast,Cruzain inh noDet
O=C(Cc1cccs1)Nc1nnc(SCc2cccc3ccccc23)s1,0%,-10%,20%,-22%,9%,10%,14%,10%
Cc1cccc(NC(=O)c2cc([N+](=O)[O-])ccc2N2CCN(C)CC2)c1,/,/,5%,1%,5%,3%,0%,/
Cc1cccc(C2C=C(c3ccc(F)cc3)Nc3nc4ccccc4n32)c1 (stereo not given),/,-6.7%,-26%[46.1 µM],/,/,23%,/,0%
O=C(NNC1=NC2(CCCC2)Cc2ccccc21)c1ccncc1,5%[14.2 µM],/,-9%,0%,/,-11%,1%,/
COC(=O)c1cn(NC(=O)Cc2ccc(Cl)c(Cl)c2)c(=O)c2ccccc12,-12%,-6.1%,?,28%,0%,-4%,-6%,?
Cc1cc(Cl)ccc1OCC(=O)NNC(=O)c1ccc(=O)[nH]c1,16%,/,0%,-11%,/,1%,4%,/
CCN(Cc1ccccc1)C(=O)C1CCC(CNc2c(N3CCOCC3)c(=O)c2=O)CC1 (stereo not given),/,1.3%,/,0%,1%,0%,-5%,-5%
COc1cccc(C(=O)Oc2ccc3ccc(=O)oc3c2)c1,/,/,/,6%,0%,-2%,1%,/
Cc1ccc(-c2csc(-c3c[nH]c4ccccc34)n2)c(C)c1,?,0.0%,-9%,?,-6%,-11%,-9%,-7%
C=CCN1C(=O)c2ccc(C(=O)NCCOc3ccccc3F)cc2C1=O,5%,/,1%,-2%,/,20%,4%,/
COc1c(Cl)cc(C(=O)Nc2cccc(-c3nc4ccccc4[nH]3)c2)cc1Cl,/,-1.7%,?,/,/,?,/,?
CCCCc1c(O)nc2sc3cc(OC)ccc3n2c1=O,17%[46.1 µM],3.1%,9%,1%,-10%,12%,7%,-21%
Fc1ccccc1NC(=S)Nn1cnnc1,8%[46.1 µM],/,18%[46.1 µM],2%,-3%,-22%,7%,/
CCOC(=O)NC(=O)CSc1nc(C)cc(C)c1C#N,0%,-1.7%,-19%,-1%,-12%,18%,-3%,0%
CCC(=O)c1ccccc1OCCN1C(=O)NC(C)(C)C1=O,19%,3.4%,11%,-13%,-7%,-18%,-1%,-2%
O=C(CN1C(=O)CC(c2ccco2)Sc2ccccc21)NC1CCCCC1 (stereo not given),/,/,/,21%,0%,-1%,-2%,/
CCOC(=O)/C(C#N)=N/Nc1ccc(S(=O)(=O)N2CCc3ccccc32)cc1,?,-6.7%,-25%,7%,10%,?,-1%,25µM*
CS(=O)(=O)N(CC(=O)N/N=C/c1ccc(OCC(=O)N2CCOCC2)cc1)c1ccccc1Cl,12%,-3.4%,-1%,-18%,-8%,-11%,-13%,-7%
CCOc1cccc(C(=O)Nc2ccccc2OC(F)F)c1,?,-6.3%,-22%,-27%,7%,8%,-6%,-5%
CC(NC(=O)CC12CC3CC(CC(C3)C1)C2)C(=O)O (stereo not given),11%,6.2%,28%,-3%,6%,19%,2%,-11%
C=CCOCC(O)CS(=O)(=O)Cc1ccc(Cl)cc1 (stereo not given),-30%,-1.3%,-15%,-9%,3%,13%,3%,-13%
CCOc1cc(/C=N/O)ccc1OCC(=O)Nc1cccc(C)c1,-1%,5.9%,?,5%,-11%,19%,-11%,?
COc1ccccc1N=Nc1ccc(N)c(C)c1,7%,/,?,-13%,-5%,29%,-1%,/
COc1ccc(-c2nnc(SC(C)C(=O)Nc3c(C)n(C)n(-c4ccccc4)c3=O)o2)cc1 (stereo not given),?,-0.4%,6%,-9%,2%,-5%,-2%,-4%
CCOC(=O)c1cccc(NC(=O)C2CCN(S(=O)(=O)c3cccs3)CC2)c1,?,2.6%,?,6%,-8%,25µM*,-3%,-1%
Cc1ccc(S(=O)(=O)Cc2nc(-c3ccc(C(=O)NCCCOC(C)C)cc3)oc2C)cc1,/,-2.0%,2%[46.1 µM],/,/,?,/,8%
Cc1cccc(Cn2c(CNC(=O)c3ccccc3)nc3ccccc32)c1,23%[46.1 µM],-4.0%,-9%[46.1 µM],/,/,-10%,/,-6%
CCC(Sc1nc2cc(OC)c(OC)cc2c(=O)n1Cc1ccc(OC)cc1)C(=O)NCCOC (stereo not given),?,1.3%,?,-3%,/,-6%&-1%,3%,-5%
CCN(c1c(C)n(C)n(-c2ccccc2)c1=O)S(C)(=O)=O,22%[46.1 µM],-1.5%,2%,8%,5%,-8%,1%,7%
NS(=O)(=O)c1ccc(N/N=C2/CCCc3ccccc32)c([N+](=O)[O-])c1,-16%,/,-1%,20%,-1%,-15%,0%,/
CC(NC(=O)COC(=O)COc1ccc(Cl)cc1)c1ccccc1 (stereo not given),0%[46.1 µM],/,0%[46.1 µM],3%,/,-7%,-7%,/
CCOc1cccc(C(=O)Nc2ccc(N(CC)CC)cc2)c1,-23%,4.6%,-19%,2%,-7%,32%[activator],-2%,-4%
COc1ccc(O)c(-c2cc(-c3cccc(Br)c3)n[nH]2)c1,?,-9.5%,?,?,-149%,71%[activator],-22%,-9%
COCCSc1nnc(NC(=O)CS(=O)(=O)c2ccc(C)cc2)s1,8%[46.1 µM],/,-9%,0%,-8%,4%,0%,/
CCOC(=O)N1CCN(Cc2cccs2)CC1,35%,4.7%,-24%,-5%,-4%,12%,1%,-10%
C[N+](C)(C)CC1CCCc2ccccc2C1=O (stereo not given),?,/,?,?,/,?,/,/
CC(C)c1ccc(NC(=O)Cn2nnc(C(=O)NCc3ccc4c(c3)OCO4)c2N)cc1,?,-0.8%,18%&26%[46.1 µM],1%,6%,-2%&1%,4%,-29%
CN(C)CCCN(C(=O)CCc1ccccc1)c1nc2ccc(F)cc2s1,-29%,-7.0%,-18%,-7%,-8%,-15%,-10%,0%
O=C(c1ccc([N+](=O)[O-])cc1)N1CCSC1c1ccc(Cl)cc1 (stereo not given),2%,-3.5%,0%,3%,-8%,6%,-9%,-10%
CCc1nn(-c2ccccc2)c(=S)c2ccccc12,19%[46.1 µM],/,17%,-21%,-7%,-15%,1%,/
CCCOc1ccc(/C=N/n2nnnc2N)cc1OC,-24%[46.1 µM],/,-4%[46.1 µM],15%,19%,4%,-3%,/
Cc1ccc(OCCNC(=O)CNC(=O)c2ccccc2Cl)cc1,2%,/,-9%,-12%,/,-2%,7%,/
Cc1cccc(CC(C)NC(=O)CCc2nnc(CCCCc3ccccc3)o2)n1 (stereo not given),16%[46.1 µM],/,?,-11%,-6%,26%,0%,/
COc1ccc(CC(=O)NNc2ncnc3c2cnn3Cc2ccccc2)cc1OC,4%,/,19%,-5%,-2%,-24%,1%,/
COc1ccc(CNC(=O)C(C)N2Cc3ccccc3C2=O)cc1 (stereo not given),/,-1.0%,-24%[46.1 µM],/,/,-17%,/,0%
CCOc1ccc(NC(=O)Cn2ncc3ccccc32)cc1,/,/,/,-2%,4%,65%[activator],-3%,/
O=C(COc1ccc(F)cc1)NCc1ccc2c(c1)CCN2C(=O)c1ccc(F)cc1,/,-3.9%,?,/,/,0%,/,2%
Cc1ccc(C)c(Nc2cc(C)nc(-c3ccccc3O)n2)c1,/,/,/,-1%,-41%,-30%,-6%,/
CCOC(=O)CSc1n[nH]c(=O)n1CCc1ccccc1,/,/,/,8%,7%,-21%,0%,/
CCCNS(=O)(=O)c1cccc(C(=O)NC2CCCc3ccccc32)c1 (stereo not given),1%,-8.4%,18µM*,2%,-5%,5%,18%,-5%
CC(=O)N1CCC(C(=O)N2CCN(S(=O)(=O)c3ccc(F)cc3)CC2)CC1,3%,/,8%,1%,8%,-8%,8%,/
O=C(OCc1ccccc1F)c1cnc(Cl)c(Cl)c1,-18%[46.1 µM],/,-3%[46.1 µM],-1%,-18%,-1%,1%,/
COc1cc(C(=S)N2CCOCC2)ccc1OC(=O)c1cccc(C)c1,/,/,/,12%,-2%,?,6%,/
CN(Cc1nc2ccccc2[nH]1)Cc1nc(CC2CC2)no1,/,/,/,-24%,0%,15%,1%,/
O=C(NN=C1CCCCCC1)c1cc2ccccc2cc1O,/,/,/,10%,7%,0%,0%,/
CC(C)c1ccc(OCC(=O)N(Cc2cccs2)C2CCS(=O)(=O)C2)cc1 (stereo not given),?,-4.4%,-18%[46.1 µM],/,/,?,/,?
O=C(NC1CC1)C1=C[C@H](c2ccccc2)C[C@H](OCc2ccc(CO)cc2)O1,/,/,/,-3%,-5%,-2%,-2%,/
CC(=O)Nc1ccc(NS(=O)(=O)c2cccc3nonc23)cc1,1%[46.1 µM],/,2%[46.1 µM],-9%,-2%,3%,4%,/
C=CCNC(=O)c1cc2sccc2n1C,/,/,/,-19%,-43%,-6%,0%,/
Clc1ccc(OCc2noc(-c3ccsc3)n2)c(Cl)c1,?,/,0%[46.1 µM],12%,-3%,-19%,-1%,/

# Additional results.
SMILES,Marburg entry inh,Cruzain inh Det,Lassa entry inh,RE007 growth inh,NS1 function inh,2A StopGo,SARS PLpro yeast,Cruzain inh noDet
Cc1ccc(S(=O)(=O)N2CCOCC2)cc1NC(=O)COc1ccc(-c2nnco2)cc1,?,/,?,-1%,1%,-27%,1%,/
COc1cccc(-n2ccnc2SCC(=O)Nc2cccc3ccccc23)c1,/,-4.0%,3%[46.1 µM],/,/,-15%,/,5%
COc1cc2ncnc(NCc3cc(F)ccc3F)c2cc1OC,3%,/,?,1%,5%,-2%,-2%,/
Cc1ccc(N=Cc2ccc(N(C)C)cc2)cc1C,-4%[46.1 µM],/,/,8%,/,11%,-3%,/
CC1CCN(CCCNC(=O)c2cn(C)c3ccc(S(=O)(=O)N4CCCC4)cc3c2=O)CC1,-13%&-13%,-1.2%,26%,13%,-2%,3%,6%,-10%
Clc1ccc(C(Cl)(Cl)Cl)c(Cl)c1,/,-0.8%,/,5%,/,-25%,-21%,-1%

# Not a hit list; about 4.5% have a hit in one of these screens.
